# Bioassay records from PubChem BioAssay.
# Giardia kill: Small Molecules that selectively kill Giardia lamblia: qHTS; activity change, % at 7.66 µM, hits read low; 340,000 compounds, 0.15% hits; Giardia lamblia trophozoite viability; AID 540267, 2011; in the data active = activity change below about -80%; inconclusive = between about -30% and that limit;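 also: parasites exposed to compound for two days anaerobically before the ATP read; % is scaled to controls: 0 for no effect and ±100 for the full control effect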
#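 ATP-content bioluminescence gauges trophozoite survival. Cells (100/well) receive compound and incubate anaerobically for 48 hrs at 37 deg C; detection reagent follows for 15-30 min at room temperature.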
# TSG101-PTAP inh: qHTS Assay for Iinhibitors of HIV-1 Budding by Blocking the Interaction of PTAP/TSG101. AID 493005, 2010. 340,000 tested, under 10 active. Tumor susceptibility gene 101 protein (Homo sapiens), Q99816. Fluorescence polarization, FITC-PTAP peptide / Tsg101 binding. Potency, µM (series often up to 115 µM), without a hit: at the highest dose activity change, negative = inhibition, most hits filed as inhibitors; active = well fitted inhibition curve with a large enough effect in the main read-out, with a control signal flat, not every such curve was filed as active; inconclusive = small, poorly fitted or top-dose-only effect, or effect the other way, or a change in a side signal; inactive = no such curve, though single readings can be large or run the other way; also: potency is read from the fitted curve at half-maximal effect; % of control where 0% means no effect
#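 Fluorescence anisotropy tracks displacement of a FITC-tagged PTAP peptide (50 nM) from the Tsg101 binding domain (10 uM), following a 20 min room-temperature incubation at pH 7.5.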
# PKM2 act: qHTS Assay for Activators of Human Muscle isoform 2 Pyruvate Kinase; Pyruvate kinase PKM (Homo sapiens), P14618; purified PKM2, Kinase-Glo ATP luminescence, activation; response scale: 0% is enzyme alone, no compound; Potency, µM (series often up to 57.5 µM), inactives show top-dose activation, most hits filed as activators; 260,000 compounds, 0.34% hits; AID 1631, 2009; also: potency is read from the fitted curve at half-maximal effect; % is scaled to controls: 0 for no effect and ±100 for the full control effect; nearly all actives have a fitted effect of over 55% in size
#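 ATP formation by purified human PK-M2, quantified via coupled luciferase luminescence after 1 h at room temperature with 0.1 mM ADP and 0.5 mM PEP final.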
# Integrin act MD: qHTS for Activators of Integrin-Mediated Alleviation for Muscular Dystrophy; AID 624291, 2012; 350,000 compounds, 0.064% hits; alpha7betagal myoblasts, beta-gal FDG fluorescence, 48 h; Potency, µM (top dose mostly 38.3 µM), for the others: at the top dose activation, actives largely listed as activators;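 also: potency is read from the fitted curve at half-maximal effect; 100% = response of the positive control SU9516; nearly all actives have a fitted effect of over 60% in size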
#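 alpha7betagal+/- myoblasts (passage 13, 250/well) treated 48 h at 37C with compounds at 1:260 dilution of DMSO stock. Lysed, then beta-galactosidase activity read as FDG fluorescence (ex 480/em 540) after 30 min, with pre-read for autofluorescence.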
# Coupling enz: qHTS Assay for Inhibitors of Fructose-1,6-bisphosphate Aldolase from Giardia Lamblia: Coupling assay counterscreen | 290,000 compounds, 0.67% hits | coupling enzyme system counterscreen, AmpLite Red fluorescence | activity change, negative = inhibition, % at 58.2 µM, hits read low | AID 2472, 2010; in the data active = activity change below about -30%; also: % is scaled to controls: 0 for no effect and ±100 for the full control effect
#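 Coupling enzymes only (glyceraldehyde-3-phosphate) + compound, at 57.5 uM final, 10 min RT; add substrate/coupling/AmpLite Red mix, 20 min RT; fluorescence ex 525/em 598 nm. Actives flag coupling-system interference.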
# GALK inh: qHTS Assay for Inhibitors of Human Galactokinase (GALK) | Purified GALK, Kinase-Glo residual ATP luminescence | 270,000 compounds, 0.007% hits | AID 1868, 2009 | Potency, µM (titrated, usually from 57.5 µM), inactives show at the top dose activity change, negative = inhibition, actives largely listed as inhibitors | P51570; also: potency is read from the fitted curve at half-maximal effect; % is scaled to controls: 0 for no effect and ±100 for the full control effect
# Target sequence (P51570 whole entry, looked up): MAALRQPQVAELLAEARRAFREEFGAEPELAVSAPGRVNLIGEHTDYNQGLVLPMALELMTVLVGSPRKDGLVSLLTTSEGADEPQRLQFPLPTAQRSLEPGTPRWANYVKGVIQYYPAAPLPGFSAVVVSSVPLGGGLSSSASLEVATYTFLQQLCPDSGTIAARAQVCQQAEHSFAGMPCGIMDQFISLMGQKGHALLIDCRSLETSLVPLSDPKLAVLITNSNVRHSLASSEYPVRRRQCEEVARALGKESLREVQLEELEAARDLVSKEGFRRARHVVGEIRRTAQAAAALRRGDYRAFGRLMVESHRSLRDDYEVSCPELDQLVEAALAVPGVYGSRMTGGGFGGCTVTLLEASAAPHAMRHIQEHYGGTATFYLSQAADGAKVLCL
#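 Human GALK (5 nM) with 35 uM ATP and 100 uM galactose in 20 mM HEPES pH 8.0, 5 mM MgCl2, 60 mM NaCl, 1 mM DTT, 0.01% BSA. After 1 h at room temperature, leftover ATP was read by Kinase-Glo Plus luminescence.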
# Chronic BCR inh: qHTS Assay to Find Inhibitors of Chronic Active B-Cell Receptor Signaling | ABC-DLBCL IkBa-CBG/CBR reporter, luminescence ratio, 4 h | Potency, µM (top dose mostly 46.1 µM), inactives show at the highest dose ratio change, negative = lower green/red ratio, usual class: inhibitors | 340,000 compounds, 0.05% hits | AID 493014, 2011; active = well fitted inhibition curve with a large enough effect in the signal ratio, with a control signal flat, not every such curve was filed as active; inconclusive = small, poorly fitted or top-dose-only effect, or effect the other way, or a change in a side signal; the % refers to the signal ratio;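 also: potency is read from the fitted curve at half-maximal effect; plate controls were basal doxycycline-induced cells for no effect and cells given 10 µM MG132 for full effect; MG132 reads +100%, hits lower the ratio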
#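 Doxycycline induced both beetle luciferases in TMD8 lymphoma cells; IKK-driven degradation limits the IkappaBalpha-fused green signal, while red luminescence normalises for cell number and nonspecific effects. Compounds tested up to 46 uM, 4 hrs.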
# Tb PFK block: qHTS Assay to Find Inhibitors of T. brucei phosphofructokinase; AID 485367, 2010; 330,000 compounds, 0.17% hits; Potency, µM (doses to about 57.5 µM), for inactives: at the top dose activity, negative = inhibition, usual class: inhibitors; ATP-dependent 6-phosphofructokinase (Trypanosoma brucei brucei), O15648; T. brucei PFK, ADP-Glo luminescence;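 also: potency is read from the fitted curve at half-maximal effect; 0% = uninhibited 1x PFK enzyme wells and -100% = no-enzyme wells; nearly all actives have a fitted effect of over 60% in size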
# Target sequence (O15648 whole entry, looked up): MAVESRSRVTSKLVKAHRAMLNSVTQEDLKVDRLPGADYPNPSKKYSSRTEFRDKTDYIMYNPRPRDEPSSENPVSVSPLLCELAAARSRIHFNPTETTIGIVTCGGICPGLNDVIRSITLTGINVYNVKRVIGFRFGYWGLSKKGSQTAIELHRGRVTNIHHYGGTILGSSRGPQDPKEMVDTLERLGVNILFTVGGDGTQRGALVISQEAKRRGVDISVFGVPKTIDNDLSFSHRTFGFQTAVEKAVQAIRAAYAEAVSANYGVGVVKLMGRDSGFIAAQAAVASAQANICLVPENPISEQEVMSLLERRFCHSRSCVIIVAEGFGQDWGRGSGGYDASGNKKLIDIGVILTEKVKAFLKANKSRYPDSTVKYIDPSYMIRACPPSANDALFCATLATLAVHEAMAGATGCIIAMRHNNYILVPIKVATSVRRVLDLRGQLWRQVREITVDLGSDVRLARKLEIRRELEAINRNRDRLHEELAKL
#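 Luminescent ADP detection (ADP-Glo, two-step: ATP depletion then ADP-to-ATP conversion for luciferase) reported PFK activity after 45 min room-temperature reaction of 1.25 nM enzyme with 0.5 mM F6P and 0.1 mM ATP at pH 8.0.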
# B2AR arrestin: qHTS assay of beta-arrestin-biased ligands of beta2-adrenergic receptor. Beta-2 adrenergic receptor (Homo sapiens), P07550. beta-arrestin recruitment to beta2AR, cell-based reporter. Potency, µM (top dose mostly 46.1 µM), without a hit: at the highest dose activation, hits mostly activators. 330,000 compounds, 0.02% hits;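 also: potency is read from the fitted curve at half-maximal effect; 0% = DMSO controls and full agonism = EC100 isoproterenol or metaproterenol; nearly all actives have a fitted effect of over 65% in size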
# ASM inhibitor: Inhibitors of Secretory Acid Sphingomyelinase (S-ASM): qHTS. Sphingomyelin phosphodiesterase (Homo sapiens), P17405. placental ASM, HMU-PC fluorogenic substrate, 60 min. Potency, µM (series often up to 57.5 µM), for the others: at the highest dose activity change, negative = inhibition, hits mostly inhibitors. 340,000 compounds, 0.006% hits. AID 504937, 2011; also: potency is read from the fitted curve at half-maximal effect
#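 Fluorogenic HMU-PC substrate (9 uM final) is turned over by placental ASM in 60 min at 37 C after a 10 min compound preincubation. Reaction ended by alkaline stop (pH 10), with fluorescence read at 386/447 nm.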
# * = called active by the depositor; ? = inconclusive; nt = not tested or not shown; [ ] = dose if it differs, or a comment. Unless noted, calls follow the shape of the dose curve; as a rule, active = well fitted curve in the direction sought with a large enough effect; inconclusive = small, poorly fitted or top-dose-only effect, or another doubt; inactive = no such curve, though single readings can be large; an effect the other way counts as inactive or inconclusive. Only part of the results is shown (hit frequency here may not be typical).
SMILES,Giardia kill,TSG101-PTAP inh,PKM2 act,Integrin act MD,Coupling enz,GALK inh,Chronic BCR inh,Tb PFK block,B2AR arrestin,ASM inhibitor
CC1CCCN(C(=O)CCCn2c(=S)[nH]c3ccccc3c2=O)C1 (stereo unspecified),-5,-4%,-2%,5%,5,2%,?,0%,0.4%,4%
CCc1nc2n[nH]c(N)c2c2c1CCCC2,-8,-4%,1%,6%,-3,-4%,4%,3%,-0.2%,2%
CN(C)c1oc(/C=C/c2ccccc2)nc1C#N,-4,-2%,5%,-8%,-3,0%,?,7%,-0.9%,nt
CCOc1ccccc1C(=O)Nc1ccc2c(c1)C(=O)NC2=O,-25,-1%,1%,24%,5,1%,-1%,-12%,0.5%,57%
COc1ccc(CNCCC(c2ccc(OC(C)C)cc2)c2ccccc2OC)cc1 (stereo unspecified),11,-6%,nt,-81%[inhibitor],2,4%,?,7%,-0.2%,-12%
CN(C)CCCN(C(=O)c1ccc2c(c1)CCCC2)c1nc2c(F)cccc2s1,2,-1%,-4%,-53%[inhibitor],-37*,-4%,6%,1%,-0.1%,-6%
C/C(=N\NC(=O)c1ccc(Br)cc1)c1ccccc1,2,-1%,-2%,14%,-1,-2%,?,-8%,-0.6%,0%
CSc1nnc2c(n1)[nH]c1c(C)cccc12,-12,2%,4%,11%,-5,6%,9%,-6%,0.4%,-2%
O=C1N(Cc2ccccc2)c2ccccc2C12OCCO2,-5,2%,-1%,7%,2,-6%,1%,0%,0.2%,4%
CCOC(=O)/C=c1\s/c(=C\c2ccc(C(F)(F)F)cc2)c(=O)n1CC(=O)NCc1ccco1,3,12%,-8%,-41%,0,-1%,0%,-2%,-0.2%,12%
CCOC(=O)c1cc(Br)c(=O)n2ccccc12,-8,-1%,4%,-10%,2,-1%,-1%,-5%,0.8%,124%[activator]
COc1ccc2cc(C#N)c(N3CCN(Cc4nnnn4CCC(C)C)CC3)nc2c1,7,-2%,6%,19%,2,1%,2%,3%,-0.2%,19%
CCN(C(=O)CSc1nnc(-c2cccs2)o1)C1CCS(=O)(=O)C1 (stereo unspecified),-1,-2%,23%,16%,-3,-6%,-4%,-1%,-2.0%,6%
CC1(C)COC(/C=C/c2cccc([N+](=O)[O-])c2)=N1,0,-2%,-2%,-66%[inhibitor],1,-1%,?,-2%,0.1%,-1%
CCOc1ccc(CN(C)CC(=O)Nc2ccc3c(c2)CCC3)cc1OC,-5,0%,0%,-46%[inhibitor],9,8%,-14%,1%,-0.1%,0%
CCN(CC)CCOCCOc1ccc(Cl)c2ccccc12,25,-1%,0%,0%,0,1%,-17%,-6%,0.1%,1%
CCN(C(=O)CSc1nnc(Nc2ccccc2C)s1)C1CCS(=O)(=O)C1 (stereo unspecified),5,-3%,-1%,19%,0,-1%,-16%,-1%,-0.1%,1%
Cc1ccc(Cn2cccc(NC(=O)NCc3ccccc3)c2=O)cc1,-3,-5%,2%,1%,-2,-1%,-5%,0%,-0.3%,0%
COc1ccc(/C=N/NC(=O)c2c(Br)cnn2C)c2ccccc12,-3,-7%,-1%,5%,1,-1%,-13%,4%,-0.6%,5%
CCCCCSc1nc(O)cc(=O)[nH]1,-1,-3%,-4%,22%,6,-3%,4%,-6%,0.1%,0%
O=C(N/N=C/c1ccc(OCc2ccccc2)cc1)c1cccs1,-11,-9%,-3%,-29%,-4,1%,-4%,3%,-0.4%,18%
c1ccc(-c2nc(CSc3n[nH]c(-c4cccs4)n3)cs2)cc1,-7,-2%,-12%,-11%,-1,4%,?,-1%,0.3%,-17%
O=C(/C=C/c1ccccc1)NC(NC(=S)Nc1cccc(Cl)c1)C(Cl)(Cl)Cl (stereo unspecified),-11,-5%,-3%,-32%,5,2%,22%,-1%,0.0%,-1%
COc1ccc(Cn2c(=O)[nH]c3cc(C(=O)N4CCN(c5ccccc5)CC4)ccc3c2=O)cc1,-20,0%,-2%,2%,-2,-2%,-1%,-1%,0.1%,3%
N#Cc1ccc(-c2ccccc2)nc1Sc1ccc(F)cc1,1,1%,0%,17%,1,-2%,0%,0%,-0.3%,-1%
CCn1c(=O)c(C(=O)Nc2ccsc2C(=O)OC)c(O)c2ccccc21,nt,nt,-1%,nt,3,1%,?,0%,-1.0%,nt
CCOC(=O)/C(=N\O)C1=NC(C)(C)Cc2ccccc21,3,-2%,-22%,8%,7,-1%,-1%,-5%,0.1%,3%
CC1CC(C)CN(C(=O)CCCn2c(=S)[nH]c3ccccc3c2=O)C1 (stereo unspecified),-6,-4%,-4%,6%,1,2%,-2%,-12%,-0.9%,-3%
Cc1ccccc1Nc1nc(-c2ccccc2)c(C(=O)Nc2cccnc2)s1,4,-7%,4%,22%,-8,0%,?,-1%,2.5%,158%[activator]
Cc1cc(C)c2nc(NC(=O)C3CCCO3)sc2c1 (stereo unspecified),-11,-6%,2%,16%,-2,0%,?,-8%,-0.5%,0%
FC(F)(F)c1ccc(Nc2nnnc3ccccc23)cc1,13,-5%,-1%,-3%,-1,0%,?,-1%,-0.2%,-3%
CC(NC(=O)COC(=O)c1cn(-c2ccccc2)nc1-c1cccs1)c1ccccc1 (stereo unspecified),-10,1%,1%,2%,-1,-6%,?,3%,-0.4%,-3%
COc1cccc(CNCc2ccc(OC)c3ccccc23)c1OC,-20,1%,nt,?,0,-2%,?,-10%,0.2%,-4%
CC1=CCCC(C)(C)C1/C=C/C(C)=N/NC(=O)c1ccncc1 (stereo unspecified),7,0%,-1%,7%,0,7%,?,-3%,0.1%,3%
CC(C)NS(=O)(=O)c1ccc(OCC(=O)Nc2ccc3c(c2)OCO3)cc1,-29,-2%,-3%,-16%,5,0%,?,2%,-0.1%,-5%
CC(=O)NS(=O)(=O)c1cccnc1Nc1ccc(Cl)cc1,?,-2%,0%,26%,12,-3%,3%,4%,0.1%,4%
COc1cc(OC)c(OC)cc1/C=N/n1c(C)nnc1C,9,-4%,-1%,27%,1,0%,-7%,0%,0.0%,106%[activator]
COc1ccc(CNc2nc(NCc3ccc(OC)cc3)n(C(=O)c3ccccc3[N+](=O)[O-])n2)cc1,0,-9%,-19%,-9%,6,4%,?,-4%,-0.3%,-8%
Cc1cccc(C(=O)Nc2sc3c(c2C#N)CCCCC3)c1,2,0%,1%,23%,-1,-7%,?,-2%,-0.4%,-2%
CCOc1ccccc1OCc1nn2c(COc3ccccc3)nnc2s1,-25,-1%,0%,19%,0,-2%,?,-1%,0.0%,-19%
Cc1ccc(OCCCC(=O)Nc2ccc(S(N)(=O)=O)cc2)cc1,18,1%,1%,-4%,0,1%,-5%,0%,-0.6%,-13%
CN(C(=O)c1ccc2c(c1)CCN2S(C)(=O)=O)c1ccccc1,-4,-2%,-2%,14%,2,-2%,-1%,17%,-0.1%,-1%
N#Cc1c(NC(=O)CSc2nc(-c3ccco3)cc(C(F)(F)F)n2)sc2c1CCCC2,1,-1%,-4%,0%,-1,4%,?,-3%,0.0%,-5%
CCC1(C)Cc2c(sc(NC(=S)NC(=O)c3ccccc3)c2C#N)CO1 (stereo unspecified),4,-2%,3%,-8%,-1,-2%,4%,0%,-1.1%,-7%
Cc1cccc(C)c1NC(=O)CSc1nnc(-c2ccco2)n1N,10,0%,0%,8%,3,-1%,12%,0%,-0.2%,2%
C=CCOc1c(Br)cc(/C=N/n2c(CC)n[nH]c2=S)cc1Br,-13,-3%,-5%,-5%,-3,1%,1%,3%,-0.2%,nt
CC(C)CC(C(=O)N1CCOCC1)N1Cc2ccccc2C1=O (stereo unspecified),-1,-3%,-1%,3%,2,-1%,2%,-3%,-0.3%,-2%

# Three compounds from above, sorted by heavy-atom count, ascending:
SMILES,Giardia kill,TSG101-PTAP inh,PKM2 act,Integrin act MD,Coupling enz,GALK inh,Chronic BCR inh,Tb PFK block,B2AR arrestin,ASM inhibitor
C=CCOc1c(Br)cc(/C=N/n2c(CC)n[nH]c2=S)cc1Br,-13,-3%,-5%,-5%,-3,1%,1%,3%,-0.2%,nt
CN(C(=O)c1ccc2c(c1)CCN2S(C)(=O)=O)c1ccccc1,-4,-2%,-2%,14%,2,-2%,-1%,17%,-0.1%,-1%
CCC1(C)Cc2c(sc(NC(=S)NC(=O)c3ccccc3)c2C#N)CO1 (stereo unspecified),4,-2%,3%,-8%,-1,-2%,4%,0%,-1.1%,-7%
